Screening results as filed in PubChem BioAssay.
BJeLR lethal – BJeLR cell viability loss. inhibition, % (concentration not given with the values). 0.17% of 300,000 active. BJeLR (HRASV12) viability, CellTiter-Glo ATP luminescence, 48 h; reference of the scale not given here;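 active = replicate mean above 50%; inconclusive = above 50% but judged a plate artefact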;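 also: 50 nL library stock added to about 25 µL; numbers are from one replicate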
Autofluor counter – flagged as autofluorescent in microsphere protease counterscreen | compound autofluorescence counterscreen, microsphere flow cytometry; stronger effect = higher value | fluorescence intensity (test concentration not listed) | 3.1% of 360,000 active;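 active = at least 3 SD above the mean of all compounds, about 16000 in these data; inconclusive = too few beads counted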;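 also: 100 nL of 1 mM stock went into each well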
Mtb hypoxia rep – inhibitors of hypoxia-regulated fluorescent reporter in Mycobacterium tuberculosis; M. tuberculosis hypoxia-regulated fluorescent reporter, fluorescence; 0.1% of 300,000 active; fluorescence inhibition, % (concentration not given with the values);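 active = 35 to 45% if threefold the growth effect, above 45% if 1.5-fold the growth effect; inactive = the rest, general growth blockers included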;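 also: wells of about 50 µL received 100 nL stock; 0% = vehicle wells and 100% = reference inhibitor wells; whole bacteria with a GFP reporter of the hypoxia response; strong numbers were not always called active; many hits fall short of the cut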
PrP UTR inh – suppresses PrP 5' UTR mRNA reporter expression; inhibition, % (test concentration not listed); AID 488862; 0.35% of 340,000 active; cell-based PrP 5' UTR mRNA reporter, plate reader;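 active = every replicate at 50% or more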;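 also: 0 = median of the neutral control wells; tested in H4 reporter cells; numbers are from one replicate; inactives centre near -14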
Sa RN4220 lethal – kills Staphylococcus aureus RN4220; S. aureus RN4220 growth, OD600, 16 h; inhibition, % (concentration not given with the values); 0.33% of 330,000 active;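 active = z-score of -3 or lower and OD600 up to 0.18 on both plates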;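 also: plate controls were untreated cells for no effect and reference antibiotic for full effect; stock transfer was 100 nL into about 80 µL; one replicate is shown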
ugtP null kill – growth inhibition of S. aureus ugtP deletion strain; S. aureus RN4220 ugtP deletion, OD600 growth, 16 h; some inactives read as strong as hits; growth inhibition, % (test concentration not listed); 0.54% of 330,000 active; AID 1259309;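 active = z-score under -3 and OD600 up to 0.15 on both plates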;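 also: plate controls were untreated wells for no effect and antibiotic for full effect; wells of about 80 µL received 100 nL stock; the first replicate is given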
Mtb hypoxia rep growth – also measured in Mtb hypoxia rep; calls as there; growth inhibition, %; measured here: M. tuberculosis growth (absorbance);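 0% = vehicle and 100% = reference antibiotic; read after six days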
Numbers without * were called inactive; ? = inconclusive; . = not tested or not shown.

SMILES | BJeLR lethal | Autofluor counter | Mtb hypoxia rep | Mtb hypoxia rep growth | PrP UTR inh | Sa RN4220 lethal | ugtP null kill
COc1ccccc1N1CCN(C(=O)c2cccc(C(=O)N3CCN(c4ccccc4OC)CC3)c2)CC1 | -0.7 | 3522 | . | . | 23.1 | . | .
COc1ccccc1OCCNc1ccc(S(=O)(=O)N2CCCC2)cn1 | . | . | 6.8 | 10.3 | -14.4 | 2.7 | 6.0
Cc1cccc(N2CCN(C(=O)C(NS(=O)(=O)c3cccs3)c3ccccc3)CC2)c1C (stereo not given) | 2.1 | 7173 | 11.5 | -2.5 | -17.8 | 5.8 | 8.1
COC(=O)N1[C@H](C)C=C[C@]1(Cc1ccccc1)C(=O)NCCCNc1ncc(C(F)(F)F)cc1Cl | -0.1 | 3412 | . | . | 1.0 | . | .
COc1cc(Br)cc2cc(C(=O)N3CCCCC3C)c(=O)oc12 (stereo not given) | 4.4 | 4860 | -2.0 | 4.5 | -23.0 | 0.2 | 0.8
C#CCOCCOCCOCCNc1nc(N2CCN(C(=O)[C@H](CCCN=C(N)N)n3cc(C(N)[C@@H](C)CC)nn3)CC2)nc(N2CCN(C(=O)[C@H](CCC(=O)O)n3cc([C@@H](N)CC(N)=O)nn3)CC2)n1 (stereo not given in full) | . | 3081 | -5.9 | 0.6 | -6.2 | -3.3 | -4.1
Cc1ccc(Cl)cc1N1C(=O)CC(Sc2ncccn2)C1=O (stereo not given) | -6.3 | 4075 | 8.0 | -2.5 | -18.9 | 9.0 | 8.6
O=C(CSc1nc2ncccc2[nH]1)NC1CCCCC1 | -7.4 | 5198 | 1.9 | 2.1 | -2.5 | 3.7 | -1.7
COC(=O)C1=C(c2cccc(OCc3ccccc3)c2)CC2CCC1N2C(=O)NCc1ccc(N(C)C)cc1 (stereo not given) | . | . | -6.8 | 10.9 | . | -0.1 | 2.3
CCOCCCNC(=O)c1ccc(N2CCOCC2)c(NS(=O)(=O)c2ccc(OC)cc2)c1 | 5.0 | 5555 | 6.8 | 8.9 | -69.5 | 1.0 | 7.2
NC(=O)c1c(NC(=O)c2ccc([N+](=O)[O-])o2)sc2c1CCCC2 | -7.7 | 4353 | 10.2 | 6.2 | 16.9 | 26.5 | 43.7
COC(=O)c1ccc(Cn2cnc3c(cnn3-c3ccc(C)c(C)c3)c2=O)o1 | -2.4 | 11224 | 8.7 | 1.0 | -30.1 | 6.2 | 5.2
O=C(NNC(=O)c1ccc2c(=O)n3c(nc2c1)CCC3)c1cccc(Cl)c1 | 1.0 | 4172 | -2.3 | -7.9 | -3.5 | 1.1 | 6.1
COc1ccc(-c2csc(Nc3cc(C)ccn3)n2)cc1C | 0.7 | 4001 | 7.9 | -5.3 | . | -13.8 | -1.2
CCCN1CCN(CCCNC(=O)CCCn2nc(C)c3sc4ccccc4c3c2=O)CC1 | 0.8 | 5739 | 11.2 | -3.1 | -9.8 | 2.3 | 1.4
O=C1NC(c2ccccc2)=C(c2nc3ccccc3s2)C(c2ccc(O)cc2)N1 (stereo not given) | 10.3 | 21586* | -12.6 | 6.5 | 15.3 | -6.5 | 7.2
O=c1[nH]c2ccc(S(=O)(=O)N3CCCCC3)cc2[nH]1 | 3.9 | 8672 | 3.2 | 9.3 | 14.4 | 6.0 | 4.0
Cc1nn(-c2ccccn2)c2c1C(c1ccncc1)C1=C(CC(C)(C)CC1=O)N2 (stereo not given) | 6.7 | 9956 | 2.6 | 6.3 | -31.1 | -2.8 | -2.6
COCCCNC(=S)Nc1cccc2ncccc12 | 4.8 | 3172 | 1.6 | -2.0 | -5.2 | -5.7 | -8.0
CC(C)OC(=O)c1c(-c2ccc(C(C)C)cc2)csc1NC(=O)C1CCCO1 (stereo not given) | -0.3 | 3563 | . | . | -13.6 | -3.9 | 1.0
CCOCCCN1CC(=O)N2[C@@H](Cc3c([nH]c4ccccc34)C2(C)C)C1=O | 8.9 | 3076 | 17.5 | 8.5 | -13.6 | -3.1 | -2.5
N#Cc1ccc(N2CCN(c3ccc(F)cc3)CC2)cc1 | -2.7 | 10301 | 10.0 | 1.3 | -8.2 | 5.1 | 0.3
O=C(c1ccc([N+](=O)[O-])cc1[N+](=O)[O-])n1cnc2ccccc21 | 3.2 | 4328 | 1.6 | -1.5 | 0.8 | 2.3 | 9.4
O=S(=O)(c1ccc2c(c1)OCCO2)N1CCC(c2nc3ccccc3s2)CC1 | 5.2 | 9986 | 5.4 | 7.9 | . | 0.1 | 1.7
Cn1cnnc1SCC(=O)c1ccc(OC(F)F)cc1 | -17.7 | 11186 | 11.9 | -4.9 | . | 8.0 | 1.7
Cc1ccc2[nH]c3c(N4CCN(Cc5ccccc5)CC4)ncnc3c2c1 | 7.3 | 4166 | 4.2 | 3.4 | 9.8 | 7.1 | 64.4
CN(C)c1ccc(NC(=O)c2ccc(COc3cccc(Cl)c3)o2)cc1 | -4.1 | 1899 | 21.2 | 26.3 | -58.4 | -0.7 | 13.4
Cc1ccc(S(=O)(=O)N(Cc2c(F)cccc2Cl)C(=O)N2CCN(C)CC2)cc1 | -1.3 | 5539 | 12.1 | 5.4 | -17.2 | 3.6 | 5.8
COc1cc(OC)c2cc(C(=O)N[C@@H](Cc3ccccc3)C(=O)O)n(C)c2c1 | -0.6 | 3053 | 4.1 | 8.5 | -14.7 | 5.0 | 9.9
Cc1cccc(N2C(=O)NC(=O)/C(=C/c3ccc([N+](=O)[O-])o3)C2=O)c1 | . | . | -0.6 | 0.9 | . | -2.7 | 5.5
O=C(NC1CCCC1)C(c1ccc(N2CCOCC2)cc1)N(Cc1ccco1)C(=O)c1ccco1 (stereo not given) | 5.8 | 2924 | 14.0 | 10.4 | -12.7 | -7.3 | -6.4
CN(CC(=O)Nc1ccc(N2CCOCC2)cc1)C(=O)CSc1ccc(F)cc1 | -8.8 | . | 4.6 | -6.9 | -5.6 | 3.2 | 3.2
CCCCN(C(=O)c1cc2c(s1)CCC2)c1c(N)n(CCC)c(=O)[nH]c1=O | . | 5140 | -5.1 | -0.5 | -14.3 | -2.0 | -2.6
CC(C)(C)C(=O)Nc1ccc(C(=O)COC(=O)c2ccccn2)cc1 | . | 6079 | 2.3 | -4.5 | -21.3 | 5.8 | 5.0
N#CC(=Cc1ccc(O)c(O)c1)C(=O)Nc1ccccc1 | . | . | 13.9 | 5.4 | . | 11.9 | -12.5
CNC(=S)N(CCc1c(C)[nH]c2ccc(OC)cc12)Cc1cc(OC)c(OC)c(OC)c1 | -12.3 | 6189 | 4.9 | 8.5 | -1.8 | 0.4 | 3.4
Cc1cc(C)c(OCCCNC2CCCC2)c(Br)c1 | 13.2 | 3115 | 17.0 | 9.0 | -9.1 | 1.5 | 0.1
CSc1ccccc1NC(=O)c1cc(-c2ccc3c(c2)OCO3)on1 | 5.6 | 3607 | 9.8 | 2.0 | -60.0 | 2.0 | 3.0
CC1CCc2sc(C(=O)OC(C)C(=O)Nc3ncc(Cl)cc3Cl)cc2C1 (stereo not given) | 6.3 | . | 10.8 | -2.2 | . | 6.0 | 0.7
CCN(CC)C(=O)CSc1nnc2c3ccccc3n(C)c2n1 | -7.4 | 3977 | 5.9 | -2.0 | -28.1 | 3.4 | 6.3
O=CN1CCN(C(=O)c2ccc(Br)o2)CC1 | 4.2 | ? | 0.7 | -0.1 | -12.4 | 1.0 | 2.9
O=C(CSc1nccn(-c2cccc(F)c2)c1=O)Nc1ccc(Cl)cc1F | 7.0 | 3544 | 1.4 | -1.3 | -10.9 | -0.4 | 8.1
CC1Cc2nc(SCC(=O)Nc3ccc(F)cc3F)n(C)c(=O)c2S1 (stereo not given) | -10.7 | 9265 | 10.1 | 12.0 | -25.2 | 6.4 | 4.7
COc1ccc(Cl)cc1S(=O)(=O)Oc1ccc(NC(C)=O)cc1 | -3.2 | 2447 | 3.2 | 4.9 | -0.9 | 3.9 | 6.2
Cc1ccc2nc(SCC(=O)NCCCN3CCCC3=O)[nH]c2c1 | . | 5141 | 6.6 | 5.8 | 2.8 | 5.1 | 3.1
CCCCC(CC)C(=O)Nc1ccc(Nc2ccccc2)cc1 (stereo not given) | -4.6 | 2081 | 9.3 | 2.7 | -10.6 | -1.6 | 1.6
CCCCNC(=S)Nc1ccc(-c2nc3ccc(C)cc3s2)cc1 | 2.3 | 2485 | 1.4 | 10.9 | -88.0 | -4.2 | -10.8
CC1=C/C(=C(\c2ccc(O)c(C)c2)c2ccccc2S(=O)(=O)O)C=CC1=O | 4.7 | 3990 | . | . | -21.9 | . | .
COC(=O)c1nn(-c2cccc(C)c2)c2nnc(Cc3ccccc3)c(=O)n12 | 5.0 | 7606 | -4.4 | -3.1 | -8.6 | 9.0 | 21.4
CCOC(=O)C1CCCN(C(=O)c2ccc(S(=O)(=O)NCc3ccco3)cc2)C1 (stereo not given) | -7.3 | 4193 | -1.3 | -3.0 | -20.7 | 3.1 | 5.3

A draw from above in order of SMILES length, lowest first:
SMILES | BJeLR lethal | Autofluor counter | Mtb hypoxia rep | Mtb hypoxia rep growth | PrP UTR inh | Sa RN4220 lethal | ugtP null kill
O=S(=O)(c1ccc2c(c1)OCCO2)N1CCC(c2nc3ccccc3s2)CC1 | 5.2 | 9986 | 5.4 | 7.9 | . | 0.1 | 1.7
O=C(c1ccc([N+](=O)[O-])cc1[N+](=O)[O-])n1cnc2ccccc21 | 3.2 | 4328 | 1.6 | -1.5 | 0.8 | 2.3 | 9.4
CCOCCCNC(=O)c1ccc(N2CCOCC2)c(NS(=O)(=O)c2ccc(OC)cc2)c1 | 5.0 | 5555 | 6.8 | 8.9 | -69.5 | 1.0 | 7.2

(listing goes on)
SMILES | BJeLR lethal | Autofluor counter | Mtb hypoxia rep | Mtb hypoxia rep growth | PrP UTR inh | Sa RN4220 lethal | ugtP null kill
COc1cccc(CCNC(=O)CCc2nnc(-c3ccc4c(c3)OCO4)o2)c1 | -2.7 | 6272 | 6.5 | 2.9 | -21.1 | 2.3 | 4.2
CSc1ncccc1C(=O)OCC(=O)c1ccc(S(=O)(=O)N2CCCCC2)cc1 | -1.5 | 6227 | . | . | -60.6 | . | .
CCOc1ccc(OCCOCCN2CCCC2)cc1 | 6.5 | 4643 | 12.5 | 3.5 | -10.0 | 3.4 | 7.6
CCCNC(=O)COc1nc2ccccc2nc1N1CCOCC1 | -4.6 | 2086 | 7.8 | 4.2 | -15.7 | 4.5 | 2.2
c1ccc(-n2cnnc2SCc2nc3ccccc3s2)cc1 | -0.3 | 9619 | 7.1 | 4.1 | -37.0 | 6.3 | 5.6
CC(=O)c1cccc(NC(=O)N2CCC(NC(=O)C3CCCCC3)CC2)c1 | -3.0 | 5601 | 2.7 | 6.7 | -1.9 | 2.3 | 2.8
Cc1ccc(NS(=O)(=O)c2ccc(C(=O)NCCCN3CCCC3=O)cc2)cc1 | 5.1 | . | -7.9 | -14.3 | -16.3 | 3.7 | 5.6
COc1ccc(N=C2C(=O)Nc3c(C)cccc32)cc1 | 3.9 | 3102 | 6.6 | 1.0 | -9.1 | -6.3 | -6.2
COc1ccc(C2(O)C(=O)Nc3ccc(C)cc32)cc1 (stereo not given) | 2.1 | 3039 | 9.9 | 2.3 | -12.3 | 0.7 | -0.1
Cc1ccc(Nc2nc(N)nc(CSc3nc(C)cc(C)n3)n2)cc1 | 9.4 | 3063 | . | . | -1.0 | 2.6 | 0.9
COc1ccc(-c2nc(N)nc(N)n2)c(O)c1 | . | 2956 | 11.3 | 5.4 | -29.6 | 6.8 | -1.4
CCOc1ccccc1Nc1nc(-c2cccnc2)cs1 | 4.0 | 4143 | 20.4 | 6.6 | -32.6 | 2.8 | 1.2
Cc1noc(C)c1CC(=O)Nc1ccc2c(c1)OCO2 | . | 4815 | 1.4 | -2.6 | -5.4 | 4.6 | 2.0
O=C(NCc1ccccc1Cl)c1cc2c(s1)CS(=O)(=O)C2 | -0.5 | 5757 | -3.5 | -0.8 | -30.9 | -2.3 | -1.8
Cn1ncc2c(Nc3ccc([N+](=O)[O-])cc3)nc(Cl)nc21 | -0.1 | 3399 | 6.4 | 3.1 | -9.7 | -1.2 | -10.9
CC(C)(C)NC(=O)COC(=O)c1snc(C(=O)NC2CCCCC2)c1N | 5.1 | 3169 | 24.0 | 10.6 | -42.4 | -2.4 | 13.8
COc1ccc(C(=O)CN2C(=O)c3ccccc3C2=O)c(OC)c1 | 4.4 | 4669 | 12.6 | -2.5 | -13.2 | 0.3 | 3.7
Cc1noc(C)c1S(=O)(=O)N(C)C[C@H]1Oc2ccc(NC(=O)NC(C)C)cc2C(=O)N([C@H](C)CO)C[C@@H]1C | . | 3026 | 5.9 | 7.5 | -75.3 | -1.4 | 8.6
